Assay outcomes deposited in PubChem by National Center for Advancing Translational Sciences (NCATS).
VDR inhibitor: vitamin D3 receptor (human) inhibition | VDR-SRC2-3 peptide fluorescence polarization, 2 h | Potency, µM, for inactives: max response, negative = inhibition, usual class: inhibitors | 0.93% of 400,000 active; active = well fitted inhibition curve with a large enough effect; inconclusive = small, poorly fitted or top-dose-only effect, or another doubt; inactive = no such curve, though single readings can be large or run the other way; note: series mostly up to about 120 µM
Target sequence (P11473 whole entry, looked up): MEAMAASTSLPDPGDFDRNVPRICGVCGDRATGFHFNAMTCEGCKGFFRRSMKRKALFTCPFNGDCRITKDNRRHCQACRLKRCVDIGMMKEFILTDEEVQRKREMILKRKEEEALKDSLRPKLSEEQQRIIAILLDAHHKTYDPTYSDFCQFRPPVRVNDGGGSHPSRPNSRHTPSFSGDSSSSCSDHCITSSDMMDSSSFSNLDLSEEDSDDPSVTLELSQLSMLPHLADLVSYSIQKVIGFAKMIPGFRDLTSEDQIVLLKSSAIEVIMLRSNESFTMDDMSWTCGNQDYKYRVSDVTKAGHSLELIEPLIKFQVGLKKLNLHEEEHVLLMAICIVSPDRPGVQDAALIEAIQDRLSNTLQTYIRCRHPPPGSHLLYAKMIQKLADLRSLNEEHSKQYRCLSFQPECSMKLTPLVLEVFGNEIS
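Compounds are added to VDR with labelled SRC2-3 coactivator peptide and held 2 h at room temperature. Inhibition of the VDR–peptide interaction is then read as a change in fluorescence polarization.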
Numbers without * were called inactive; ? = inconclusive; & = joins results of further samples; [ ] = another dose, or the depositor's remark. % is set by controls: 0 for no effect and ±100 for the full control effect; potency is the fitted concentration of half-maximal effect. Only part of the results is shown; rates above refer to the full screens.

| SMILES | VDR inhibitor |
| --- | --- |
| CCOC(=O)c1c(C)nc(C(Cl)(Cl)Cl)nc1N | 1% |
| CCC(=O)N1CCc2cc(Br)cc(S(=O)(=O)NCC3CCCO3)c21 (centres undefined) | -2% |
| CCOc1ccc(-c2ccc(SCC(=O)NC3CCCCC3)nn2)cc1 | 1% |
| Fc1cc(Cl)ccc1NC(=S)NCCN1CCOCC1 | 2% |
| O=C(CSc1nn(-c2ccccc2)c(=S)s1)NC(=O)NCc1ccco1 | 24% |
| CCN1CCc2c(sc(NC(=O)c3ccc(S(=O)(=O)N4CCCC4)cc3)c2C(=O)NC)C1 | 29% |
| O=C(COC(=O)c1cc2ccccc2cc1O)Nc1cccnc1Cl | 17% |
| COc1ccc(Cn2ccc3nc(C)c(C(=O)N4CCN(c5ccccc5OC)CC4)cc3c2=O)cc1 | 8% |
| COC(=O)c1ccc(C)c(NC(=O)C2COc3ccccc3O2)c1 (centres undefined) | -5% |
| O=C1CSC(c2ccc([N+](=O)[O-])cc2)N1CCN1CCCCC1 (centres undefined) | -14% |
| O=C(CSc1ccc(-c2cccnc2)nn1)c1ccc([N+](=O)[O-])cc1 | -12% |
| CCCCn1nc2cc(C(=O)N[C@H](C)C3CCCCC3)ccc2c1OCC | -4% |
| O=C(CCc1ccccc1)Nc1ncc([N+](=O)[O-])s1 | -4% |
| Cc1occc1-c1nnc(SCC(=O)c2ccc(Cl)cc2)n1CC1CCCO1 (centres undefined) | -1% |
| O=c1c(CCc2ccccc2)nc2cncnc2n1C1CC1 | -14% |
| COc1cccc(NC(=O)Cn2nnc(C(=O)NCCc3ccccc3)c2N)c1 | 10%&3% |
| COc1ccc(Sc2ncnc3onc(C)c23)cc1 | -29% |
| O=C(NC1CCCC1)C(c1ccc(Cl)cc1)N(Cc1ccc(F)cc1)C(=O)CCl (centres undefined) | -14% |
| CC(=O)NC1=NN(C(C)=O)C2(S1)C(=O)N(CC(C)C)c1ccc(C)cc12 (centres undefined) | -1% |
| O=C(NC(=S)Nc1ccc(Cc2ccncc2)cc1)c1ccccc1F | -3% |
| CCC(NC(=O)c1cc(COc2cncc(Cl)c2)on1)c1ccncc1 (centres undefined) | -7% |
| O=C(CSc1nnc(COc2ccccc2)o1)Nc1cc(C(F)(F)F)ccc1Cl | -1% |
| CCn1c(C)nc2cc(C(=O)NNC(=S)Nc3ccc(OC)cc3)ccc21 | -6% |
| O=C(CCc1ccc(S(=O)(=O)NCCc2ccccc2)cc1)Nc1ccc2c(c1)OCCO2 | 11% |
| Fc1ccc(-c2oncc2-c2nnnn2-c2ccccc2)cc1F | -13% |
| Cc1ccc(-n2c(N)c(Br)c(=O)[nH]c2=O)cc1C | 23% |
| COc1ccc(S(=O)(=O)NCCc2nnc3ccc(SCC(=O)Nc4cc(C)on4)nn23)cc1 | 3% |
| COC(=O)C(C)NC(=O)C(C)NC(=O)OCc1ccccc1 (centres undefined) | -25% |
| COc1ccc(C(=O)Nc2ccccc2N2CCCCC2)cc1[N+](=O)[O-] | 32%[activator] |
| COc1cc(OC)c(NS(=O)(=O)c2ccc3c(c2)CCCN3C(C)=O)cc1Cl | -1% |

Six compounds from above, arranged by length of the SMILES, high to low.
| SMILES | VDR inhibitor |
| --- | --- |
| COc1ccc(S(=O)(=O)NCCc2nnc3ccc(SCC(=O)Nc4cc(C)on4)nn23)cc1 | 3% |
| O=C(CSc1ccc(-c2cccnc2)nn1)c1ccc([N+](=O)[O-])cc1 | -12% |
| COc1ccc(C(=O)Nc2ccccc2N2CCCCC2)cc1[N+](=O)[O-] | 32%[activator] |
| CCOc1ccc(-c2ccc(SCC(=O)NC3CCCCC3)nn2)cc1 | 1% |
| O=C(COC(=O)c1cc2ccccc2cc1O)Nc1cccnc1Cl | 17% |
| Fc1cc(Cl)ccc1NC(=S)NCCN1CCOCC1 | 2% |

The results go on.
| SMILES | VDR inhibitor |
| --- | --- |
| CCOC(=O)c1[nH]c2ccc(OC)cc2c1NC(C)=O | 10% |
| COc1cccc(CN2CCNC(=O)C2CC(=O)NCC2CCOCC2)c1 (centres undefined) | 10% |
| COc1ccc(-n2ncc(C(=O)NCc3cccs3)c2C2CCN(C(=O)OC(C)(C)C)CC2)cc1 | -1% |
| COc1ccc(N2C(=O)c3ccccc3NC2(C)C)cc1 | -3% |
| Cc1ccc(-n2nc3c([n+]2[O-])CCc2nonc2-3)cc1 | -18% |
| C[C@H]1CN(C2CCCCC2)C(=O)[C@@H]1CC(=O)NCc1ccccc1 | 4% |
| CC(C)(C)c1ccc(/C=C/C(=O)N2CCOCC2)cc1 | 5% |
| Cc1cccc([N+](=O)[O-])c1NC(=O)CN(Cc1ccccc1)Cc1ccccc1 | -5% |
| CCCCNS(=O)(=O)c1ccc(OCC(=O)OC)cc1 | ? |
| C[C@H](CO)N1C[C@H](C)[C@@H](CN(C)S(=O)(=O)c2cn(C)cn2)Oc2ccc(NC(=O)Nc3ccc4c(c3)OCO4)cc2C1=O | 14% |
| COC(=O)CC(=O)Cc1nc(N)nc(Nc2ccc(C)c(C)c2)n1 | 8% |
| Nc1c(O)cccc1C(=O)O | -19% |
| C=CCOC(=O)C1=C[C@@H](c2coc3ccccc3c2=O)[C@H](CCCO)[C@@H](OCC)O1 | 13% |
| Cc1c(-c2ccccc2)n[nH]c1C(=O)N=Nc1c(O)[nH]c2ccccc12 | -1% |
| CCc1ccc(OCC(=O)NC(=S)Nc2ccc(C)cc2C)c(Br)c1 | -15% |
| COc1ccc(NC(=O)CCN2CCN(c3cccc(Cl)c3)CC2)cc1 | -14% |
| CCOc1ccc(NC(=O)Nc2ccc(N(C)C(C)=O)cc2)cc1 | 14% |
| CCN(C(=O)COC(=O)c1cc(OC)c(OC)cc1[N+](=O)[O-])C1CCS(=O)(=O)C1 (centres undefined) | -12% |
| C#CCn1c2ccccc2c2nc3ccccc3nc21 | -2% |
| COc1ccccc1-c1nc2ccccc2c(=O)n1NC(=O)c1cccs1 | 11% |
| C=CCNC(=S)N/N=C/c1ccc(C)s1 | 9% |
| COc1ccc(C(CNC(=O)COc2ccc(F)cc2Cl)N2CCCCC2)cc1 (centres undefined) | 3% |
| Cc1ccc(CN2CCC(n3nccc3NC(=O)c3ccccc3C)CC2)o1 | -1% |
| Nc1nc(NCc2ccco2)nc(Nc2ccc(F)cc2)c1[N+](=O)[O-] | 12% |
| O=S(=O)(NCC(c1ccco1)N1CCN(c2ccccc2F)CC1)c1ccc2c(c1)OCCO2 (centres undefined) | -17% |
| CC(=O)c1cccc(NC(=O)c2ccc(N(Cc3ccc(C)cc3)S(C)(=O)=O)cc2)c1 | 11% |
| CCOc1ccc2c(c1)c(=O)c(S(=O)(=O)c1ccc(C)cc1)cn2CC | -8% |
| O=C(C[C@H]1C/C=C\C[C@H](NC(=O)OCC2c3ccccc3-c3ccccc32)C(=O)O[C@@H](c2ccccc2)CNC1=O)NCCO | -23% |
| CCOC(=O)c1c(-c2ccccc2)[nH]c2ccc(O)cc12 | 13% |
| O=C(Cc1ccc([N+](=O)[O-])cc1)N/N=C/c1ccc([N+](=O)[O-])o1 | -2% |

Another view of four compounds above:
C#CCn1c2ccccc2c2nc3ccccc3nc21
  VDR inhibitor: -2%

CCOc1ccc(NC(=O)Nc2ccc(N(C)C(C)=O)cc2)cc1
  VDR inhibitor: 14%

C[C@H](CO)N1C[C@H](C)[C@@H](CN(C)S(=O)(=O)c2cn(C)cn2)Oc2ccc(NC(=O)Nc3ccc4c(c3)OCO4)cc2C1=O
  VDR inhibitor: 14%

CCc1ccc(OCC(=O)NC(=S)Nc2ccc(C)cc2C)c(Br)c1
  VDR inhibitor: -15%

Additional compounds:
| SMILES | VDR inhibitor |
| --- | --- |
| COC(=O)CNC(=O)C(Cc1c[nH]c2ccccc12)NC(=O)Oc1ccccc1 (centres undefined) | 14% |
| O=[N+]([O-])c1ccc(NC(=S)N2CCc3ccccc3C2)cc1 | ? |
| COc1ccc(CNC(=O)c2ccc(S(=O)(=O)N3CCOCC3)cc2)cc1 | 3% |
| COc1ccc(CNC(=O)/C=C/c2cc([N+](=O)[O-])ccc2OC(F)F)cc1 | 1% |
| C=C(c1ccccc1O)n1ccnc1 | -24% |
| O=C(Nc1ccc2c(c1)OCO2)c1ccc(S(=O)(=O)NCC2CCCO2)cc1 (centres undefined) | 1% |
| COc1cc(C(C)=O)ccc1OCC(=O)Nc1ccccc1N1CCCCC1 | -17% |
| Cn1c(/C=C/N2CCOCC2)c(C(=O)c2ccc(Br)cc2)c(=O)n(C)c1=O | -3% |
| O=C(Nc1cccc(Cl)c1)Nc1ccccc1C(=O)O | -8% |
| Cc1cc(C)nc(NS(=O)(=O)c2ccc(NC(=O)c3ccccc3O)cc2)n1 | -3% |
| COc1cccc(CC(=O)Nc2nc3ccccc3[nH]2)c1 | -2% |
| CC(C)NC(=O)CN(c1cccc(Br)c1)S(C)(=O)=O | 0% |
| CC(C)(NC(=O)N1CCCC1)c1cccc(C(C)(C)NC(=O)N2CCCC2)c1 | -2% |
| Cc1nc2sc(C(c3ccco3)N3CC(C)OC(C)C3)c(O)n2n1 (centres undefined) | -5% |
| CCCCCCCCCCCCCCCC(=O)NCCCC(=O)O | 1% |
| COc1cc(OC)cc(C(=O)N[C@H](C(=O)Nc2cc(F)ccc2C)C(C)C)c1 | -11% |
| COC(=O)c1ccc(OC)c(CN2CCCN(Cc3ccc(F)cc3)S2(=O)=O)c1 | 6% |
| O=C(N/N=C/c1cccs1)c1cc(-c2ccc3ccccc3c2)n[nH]1 | 9% |
| Nc1nonc1-n1nnc(C(=O)N/N=C/c2cccnc2)c1-c1ccccc1 | -20% |
| O=C(OCc1ccc(Cl)c(Cl)c1)c1ccc[nH]1 | -4% |
| O=C(CSc1nnc(-c2cccs2)n1Cc1ccco1)Nc1ccc2c(c1)OCO2 | 1% |
| O=C(COC(=O)c1c(F)cccc1F)NCc1ccc2c(c1)OCO2 | -13% |
| c1ccc(-c2ccccc2OCCCN2CCCC2)cc1 | -5% |
| Cc1ccc(CS(=O)Cc2ccc(C(=O)NC3CCCC(C)C3C)o2)cc1 (centres undefined) | -13% |
| O=C(CS(=O)(=O)Cc1ccccc1)Nc1ccc(S(=O)(=O)N2CCOCC2)cc1 | -26% |
| c1ccc(CCn2nnnc2C(c2cccnc2)N2CCN(c3nc4ccccc4s3)CC2)cc1 (centres undefined) | -4% |
| C=C1CCC(O)C2(C)CCC3C(C)C(=O)OC3C12O (centres undefined) | -6% |
| O=C(Nc1cccnc1)c1ccc(CSc2ccccc2)cc1 | 20% |
| CCCc1nc(Nc2nc3ccccc3o2)nc(C)c1C(=O)OCC | 7% |
| COc1cc(NS(=O)(=O)c2ccc(NC(=S)NC(=O)c3ccco3)cc2)ncn1 | -16% |

The results go on.
smiles	VDR inhibitor
O=S(=O)(c1ccccc1C(F)(F)F)N1CCN(c2nc(-c3ccccc3)nc3ccccc23)CC1	-8%
COCCOC(=O)c1c(C)n(C)c2ccc(OC(=O)c3ccccc3OC)cc12	-8%
COc1cccc(NC(=O)N(C2CCCCC2)C(C)c2cccs2)c1 (centres undefined)	3%
CCOC(=O)Nc1ccc(=O)n(Cc2c(Cl)cccc2Cl)c1	0%
COc1ccc(-c2noc(CCC(=O)N3CCN(c4ccccc4OC)CC3)n2)cc1	9%
N#C/C(=C\c1ccccc1Cl)C(=O)Nc1ccccn1	-16%
CCn1ccnc1CN(C)Cc1nc(-c2cccc(Cl)c2)no1	-1%
COc1ccc(N2CCN(C(=O)C3CCCN(c4ncnc5c4nc4n5CCCCC4)C3)CC2)cc1 (centres undefined)	-10%
CN1CCN(C(=O)/C(=C\c2cccs2)NC(=O)c2ccccc2)CC1	-4%
O=C(CN1C(=O)CSCC1=O)NCc1ccc(F)cc1	-6%
O=S(=O)(NCc1ccc(F)cc1)c1ccc(-n2cnnn2)cc1	-1%
O=C1CCCC=C1[C@@H](O)CCOC(c1ccccc1)(c1ccccc1)c1ccccc1	2%
Cc1ccccc1Nc1c(-c2ccc(Cl)s2)nc2cccc(C)n12	-13%
CCN(CC)C(=O)n1nc(C)c(CN2C(=O)c3ccccc3C2=O)c1C	-1%
COc1ccc(S(=O)(=O)N2CCCC2CNC(=O)c2cccc(OC)c2)cc1 (centres undefined)	6%
O=C(Cn1c(SCCOc2ccc(Cl)cc2)nc2ccccc21)N1CCCCC1	5%
O=S1(=O)CCN(OCc2ccc(Cl)cc2)CC1	11%
Cc1cc(-c2ccc(C)c(S(=O)(=O)N3CCN(c4ccc([N+](=O)[O-])cc4)CC3)c2)on1	15%
CC(C)(C)OC(=O)NCCCC1=CC2=CC(=O)C(C)(OC(=O)CCc3ccccc3)C(=O)C2=CO1 (centres undefined)	-3%&-2%
O=C(COc1ccccc1)N1CCCCCCC1	-8%

The listing continues.
smiles	VDR inhibitor
COc1ccccc1NC(=O)CC1Nc2ccccc2NC1=O (centres undefined)	-5%
COc1cccc(C(C(=O)NCC2CCCO2)N(C(=O)Cn2nnc3ccccc32)c2ccc(NC(C)=O)cc2)c1 (centres undefined)	8%
COc1ccc(CCNC(=O)COC(=O)Cc2cccc3ccccc23)cc1	-5%&-2%
CC1Oc2ccccc2N(CC(=O)Nc2ccc3c(c2)OCO3)C1=O (centres undefined)	-19%
Cc1ncc([N+](=O)[O-])n1Cc1ccc(Br)cc1	10%
CCn1c(COc2cccc(OC)c2)nnc1SCC(=O)Nc1cc(OC)ccc1OC	-11%
O=C1C2C(c3ccccc3)C=CC(c3ccccc3)C2C(=O)N1c1cccnc1 (centres undefined)	11%
COCCN(C(=O)CSCc1ccccc1)c1c(N)n(Cc2ccccc2)c(=O)[nH]c1=O	3%
Cc1cc(NC(=O)CCC(=O)N(CC(=O)NC2CCCC2)c2cccc(F)c2)no1	7%
Cc1cccc(-n2ccnc2SCC(=O)Nc2ccccc2C(F)(F)F)c1	6%
COc1ccc(-c2nn[nH]n2)cc1OC	-19%
